Screens (PubChem)
Cruzain inh Det = inhibitors of Trypanosoma cruzi cruzain with detergent; purified cruzain, Z-FR-AMC fluorescence, 0.01% Triton; P25779; Potency, µM, without a hit: max response, negative = inhibition, usual class: inhibitors; 0.43% of 200,000 active; active means well fitted curve in the direction sought with a large enough effect; inconclusive means small, poorly fitted or top-dose-only effect, or another doubt; inactive means no such curve, though single readings can be large; an effect the other way counts as inactive or inconclusive;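 further: plate controls were neutral wells for no effect and buffer without enzyme for full effect; nearly all actives have a fitted effect of over 40% in size; top concentration of the series not given in the record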
Target sequence (P25779 123-467 limits assumed): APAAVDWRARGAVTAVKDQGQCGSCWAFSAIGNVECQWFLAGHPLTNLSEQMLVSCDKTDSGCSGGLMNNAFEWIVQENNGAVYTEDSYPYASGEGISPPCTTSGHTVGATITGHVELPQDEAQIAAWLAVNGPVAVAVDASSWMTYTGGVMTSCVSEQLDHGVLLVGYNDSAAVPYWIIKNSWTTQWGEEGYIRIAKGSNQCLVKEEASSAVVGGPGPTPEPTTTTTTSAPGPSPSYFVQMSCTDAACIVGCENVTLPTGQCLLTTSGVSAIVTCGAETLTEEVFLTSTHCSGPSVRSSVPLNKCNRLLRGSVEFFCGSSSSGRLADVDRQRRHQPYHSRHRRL
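Cysteine protease activity tested under reducing, mildly acidic conditions (100 mM sodium acetate pH 5.5, 5 mM DTT) plus 0.01% Triton X-100. Cruzain 1.5 nM; substrate Z-FR-AMC 2 uM; 15 min compound preincubation at room temperature.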
NS1 function inh = influenza NS1 inhibition. S. cerevisiae slowed by influenza A NS1, growth recovery by OD600. Potency, µM (highest dose often 46.1 µM), inactives show at the top dose activity, positive = more growth. 0.4% of 270,000 active; further: actives are rising curves; nearly all actives have a fitted effect of over 50% in size
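Read-out: OD600 growth recovery of NS1-expressing budding yeast. Cells grown overnight at 30C in -URA glucose medium, washed, resuspended and diluted 1:100 in 2% galactose assay medium, pH 6.0. Same strain lacking NS1 served as positive control.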
RE007 growth inh = less growth of the S. pombe RE007 Vpr strain; S. pombe RE007 Vpr strain, BacTiter-Glo ATP luminescence, 24 h; control for the full effect not named in the record; Potency, µM (doses to about 92.2 µM), for inactives: at the highest dose activity change, negative = less growth; 0.21% of 360,000 active; active = well fitted falling curve with a large enough effect; inconclusive = small, poorly fitted or top-dose-only effect; inactive = no such curve, though single readings can be large or run the other way;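 further: on the % scale 0 is the no-effect control and ±100 the full control effect; nearly all actives have a fitted effect of over 50% in size; the assay follows cell death caused by Vpr and the record does not say whether a fall means rescue or toxicity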
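Fission yeast RE007 carrying one integrated HIV-1 vpr copy, seeded at OD 0.01 in PMG+AL medium with 23 nL pinned compound. Grown 24 h at 30 degrees; viability read by BacTiter-Glo luminescence after 5 min.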
Cruzain noTriton = cruzain (T. cruzi) inhibition without detergent. 2.3% of 200,000 active. P25779. AID 1476. Potency, µM, inactives show max response, negative = inhibition, most hits filed as inhibitors. purified cruzain, Z-FR-AMC fluorescence, no detergent; active means well fitted curve in the direction sought with a large enough effect; inconclusive means small, poorly fitted or top-dose-only effect, or another doubt; inactive means no such curve, though single readings can be large; an effect the other way counts as inactive or inconclusive;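 further: plate controls were enzyme without inhibitor for no effect and buffer without enzyme for full effect; nearly all actives have a fitted effect of over 40% in size; top concentration of the series not given in the record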
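Purified cruzain at 1.5 nM, pre-incubated 15 min with compound at room temperature in 100 mM sodium acetate pH 5.5, 5 mM DTT, 0.00005% Triton X-100. Reaction started with 2 uM Z-FR-AMC; AMC fluorescence increase over 60 s gives rate.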
Lassa entry inh = Lassa virus entry inhibition. Lassa virus pseudotype entry inhibition, cell reporter; control for the full effect not named in the record. Potency, µM (top dose mostly 37.9 µM), for the others: at the top dose activity change, negative = inhibition, usual class: inhibitors. 1.2% of 300,000 active. AID 540256; active means well fitted inhibition curve with a large enough effect; inconclusive means small, poorly fitted or top-dose-only effect, or effect the other way; inactive means flat fitted curve, though single readings scatter; tested in HEK293 cells; further: on the % scale 0 is the no-effect control and ±100 the full control effect; nearly all actives have a fitted effect of over 50% in size; luciferase read-out
MARV entry inh = blocks Marburg virus binding to or entry into cells; Marburg virus pseudotyped entry inhibition, cell reporter; control for the full effect not named in the record; about a third of the inactives were read at about 46 µM; Potency, µM (series often up to 37.8 µM), without a hit: at the highest dose activity change, negative = inhibition, hits mostly inhibitors; 1.8% of 300,000 active; active = well fitted inhibition curve with a large enough effect; inconclusive = small, poorly fitted or top-dose-only effect, or effect the other way; inactive = flat fitted curve, though single readings scatter; tested in HEK293 cells; about a fifth of its hits are not listed in these tables; further: on the % scale 0 is the no-effect control and ±100 the full control effect; luciferase read-out
SARS PLpro yeast = SARS-CoV PLP inhibition in yeast. S. cerevisiae expressing SARS-CoV PLpro, growth rescue; control for the full effect not named in the record. Potency, µM (highest dose often 32.9 µM), for the others: top-dose activity, positive = growth rescue. 0.19% of 330,000 active; further: 0% is about no effect; nearly all actives have a fitted effect of over 55% in size; growth read by luminescence after 48 h
2A StopGo = FMDV 2A StopGo reporter, luciferase signal; human cells with a luciferase reporter of 2A StopGo recoding; control for the full effect not named in the record; Potency, µM (highest dose often 57.9 µM), for the others: at the top dose signal change, negative = less light; 1.2% of 410,000 active; AID 1159524; active = well fitted falling curve with a large enough effect; inconclusive = small, poorly fitted or top-dose-only effect; inactive = no such curve, though single readings can be large or run the other way; tested in HEK293T cells; further: on the % scale 0 is the no-effect control and ±100 the full control effect; nearly all actives have a fitted effect of over 45% in size; luciferase light after 4 h
Starred values were filed as active, the others as inactive; ? = inconclusive; . = not tested or not shown; & = joins results of further samples; [ ] = dose if it differs, or a comment. Unless noted, the call rests on the fitted dose curve; in most records, active means well fitted rising curve with a large enough effect; inconclusive means small, poorly fitted or top-dose-only effect; inactive means no such curve, though single readings can be large or run the other way. Potency means the concentration at half of the fitted maximal effect.

SMILES	Cruzain inh Det	NS1 function inh	RE007 growth inh	Cruzain noTriton	Lassa entry inh	MARV entry inh	SARS PLpro yeast	2A StopGo
CCCC(=O)Nc1ccc2c(c1)nc1n2CCN(C2CCCCC2)C1	.	4%	16%	.	3%	2%[46.1 µM]	-1%	-2%
COc1cc(C2NC(=O)NC(C)=C2C(=O)OCc2ccc(C)cc2)cc(OC)c1O (stereo not given)	-5.7%	-2%	0%	-4%	-27%	-7%	-13%	.
N#Cc1c(Cl)nc(N/N=C/c2ccccc2)c(Cl)c1Cl	-8.0%	-29%	-1%	?	7%	?	-16%	0%
Cc1ccc(C2(C)NC(=O)N(CC(=O)Nc3cc(S(=O)(=O)N(C)C)ccc3C)C2=O)cc1 (stereo not given)	.	9%	7%	.	?	?	-7%	-13%
Cc1nc(SCC(=O)N2CCC(C(N)=O)CC2)n[nH]1	2.0%	-8%	0%	0%	8%	3%[46.1 µM]	4%	9%
CC(C)c1ccc(S(=O)(=O)c2nnn3c2nc(NC2CCCC2)c2sccc23)cc1	-2.3%	.	.	27%	2%[46.1 µM]	.	.	1%
CCN(Cc1ccccc1)C(=O)C1CCN(S(=O)(=O)c2ccc3c(c2)CCCN3C(C)=O)CC1	-0.2%	.	.	21%	3%[46.1 µM]	.	.	?
CCOC(=O)C1=C(CN2CCN(c3cc(C)ccc3C)CC2)NC(=O)NC1c1ccc(Cl)cc1 (stereo not given)	-8.7%	.	.	0%	?	?	.	0%
O=C(CSc1nc2ccccc2s1)Nc1ncccn1	3.2%	-9%	-4%	-2%	6%	-5%[46.1 µM]	6%	39%[activator]
O=[N+]([O-])c1ccc(C2=Nc3cc(Cl)ccc3OC2)cc1	.	-6%	-24%	.	3%[46.1 µM]	11%[46.1 µM]	0%	19%
O=c1cc(O)c2sc3nc(C(F)(F)F)c4c(c3c2[nH]1)CCCCC4	.	.	2%	.	6%	4%[46.1 µM]	5%	-5%
Cn1ncc(Cl)c1C(=O)NCc1ccc2c(c1)OCO2	.	6%	2%	.	.	.	1%	?
CCOc1ccccc1NC1c2ccccc2C(=O)N1c1ccc(C)cn1 (stereo not given)	-5.0%	-48%	-4%	-3%	.	.	-10%	0%
Cc1ccc(Cl)cc1NC(=O)CN1C(=O)COc2ccc(S(=O)(=O)N3CCCCCC3)cc21	-0.3%	.	.	-10%	3%[46.1 µM]	.	.	2%
O=C(Nc1ccc(F)cc1)C1CCN(S(=O)(=O)c2cccc3nonc23)CC1	.	-2%	7%	.	12%	-18%[46.1 µM]	0%	-16%
CCN(CC)CCNC(=O)c1cn(CC)c2ccc(S(=O)(=O)N3CCOCC3)cc2c1=O	-4.1%	-1%	-2%	-8%	21%[46.1 µM]	-6%&-6%[46.1 µM]	-7%	-14%&-8%
CCOc1ccccc1N1CCN(CC(=O)N(CC(C)C)c2c(N)n(CC(C)C)c(=O)[nH]c2=O)CC1	.	.	3%	.	9%	5%[46.1 µM]	-1%	-1%
CCOc1ccc(Nc2nc(-c3cccnc3)cs2)cc1	.	-5%	49%	.	-11%	15%	13%	50%[activator]
Cc1ccc(NC(=O)C(=O)NC(C)C2COc3ccccc3O2)cc1 (stereo not given)	0.9%	-1%	-9%	-1%	1%	9%	6%	-3%
O=C(C=Cc1cccc(Cl)c1)c1ccccc1	.	.	?	.	-1%[46.1 µM]	?	.	5%
COc1cc(C(=O)N2CCC(NC(=O)C(Cc3ccc(C)cc3)NC(C)=O)CC2)cc(OC)c1OC (stereo not given)	5.4%	-3%	4%	16%	-1%	23%	1%	4%
COc1cc(CO)c(Br)cc1OCC(=O)Nc1ccccc1C	.	.	1%	.	12%	28%[46.1 µM]	-2%	27%
CC(=O)N1N=C(c2cccc([N+](=O)[O-])c2)OC1(C)CC(=O)Nc1ccccc1 (stereo not given)	-7.5%	0%	.	-12%	?	4%	1%	-21%
N#CCCN(C(=O)COC(=O)c1ccc(S(=O)(=O)Nc2ccccc2)cc1)c1ccccc1	-4.7%	-5%	6%	3%	?	12%	-2%	-8%
O=C1Nc2c(Br)cc(Br)cc2C1(O)N1CCOCC1 (stereo not given)	0.0%	-5%	-1%	-10%	?	?	5%	-24%
CC1Cc2nc(SCC(=O)NCC3CCCO3)n(Cc3ccccc3)c(=O)c2S1 (stereo not given)	-2.5%	-4%	4%	5%	5%	14%	1%	.
Cc1ccc(-c2c[n+](CC(=O)Nc3ccc(C)cc3C)c3n2CCC3)cc1	.	-2%	-8%	.	-18%	-1%[46.1 µM]	0%	-7%
CCOC(=O)c1sc(N2C(=O)c3oc4ccc(C)cc4c(=O)c3C2c2ccccc2F)nc1C (stereo not given)	-0.5%	.	.	6%	6%[46.1 µM]	-3%[46.1 µM]	.	-11%
O=C(OC(C(=O)NC1CCCCC1)c1ccccc1)c1ccco1 (stereo not given)	-4.7%	-4%	-2%	-11%	18%	-5%	19%	-9%
Cc1c(C(=O)Nc2ccc3c(c2)OCO3)sc2ncn(CC(=O)N3CC(C)CC(C)C3)c(=O)c12 (stereo not given)	-2.0%	0%	-19%	-8%	-9%	-5%	0%	18%
CCC(C)NC(=O)CSc1ccc(S(=O)(=O)N(C)C2CCCCC2)cn1 (stereo not given)	.	.	10%	.	4µM*	?	-2%	-29%
COc1ccc(C(=O)Nc2cccc(-c3ccc(N4CCOCC4)nn3)c2)cc1OC	.	.	2%	.	-18%	-21%	3%	16%
COc1ccc(S(=O)(=O)NCC2CCCO2)cc1C(=O)O (stereo not given)	.	9%	8%	.	7%[46.1 µM]	?	1%	-3%
CN1CCC(NC(=O)c2cccs2)CC1	-5.3%	2%	5%	10%	.	.	9%	-10%
Cc1ccccc1C(=O)N[C@H](C(=O)Nc1ccc(Cl)c(Cl)c1)C(C)C	-3.3%	-3%	-15%	-14%	12%	21%	-14%	12%
CCCC(=O)c1cc2cc(Cl)ccc2oc1=O	-3.5%	-4%	-12%	-22%	5%	-4%	-1%	-2%
COc1ccc(CNC(=O)CSc2nc3nc(C)cc(C)n3n2)cc1	4.2%	-6%	-30%	3%	24%	2%[46.1 µM]	-4%	-16%
CCn1c(=O)n(CC)c2cc(NC(=O)C(C)c3ccccc3)c(Br)cc21 (stereo not given)	.	-19%	-10%	.	.	.	-1%	-1%
O=C1CN=C(c2ccccc2)c2cc(Cl)ccc2N1Cc1ccc(Cl)cc1	-1.4%	.	.	-12%	16%[46.1 µM]	-3%[46.1 µM]	.	?
CC1CC(C)CN(S(=O)(=O)c2ccc(F)c(C(=O)Nc3ccc(Cl)cc3F)c2)C1 (stereo not given)	8.2%	1%	3%	-2%	?	-24%	1%	.

Whole records from above. Order of values: Cruzain inh Det, NS1 function inh, RE007 growth inh, Cruzain noTriton, Lassa entry inh, MARV entry inh, SARS PLpro yeast, 2A StopGo
`COc1ccc(S(=O)(=O)NCC2CCCO2)cc1C(=O)O` (stereo not given) in the list: ., 9%, 8%, ., 7%[46.1 µM], ?, 1%, -3%
`Cc1ccccc1C(=O)N[C@H](C(=O)Nc1ccc(Cl)c(Cl)c1)C(C)C` in the list: -3.3%, -3%, -15%, -14%, 12%, 21%, -14%, 12%
`CC1CC(C)CN(S(=O)(=O)c2ccc(F)c(C(=O)Nc3ccc(Cl)cc3F)c2)C1` (stereo not given) in the list: 8.2%, 1%, 3%, -2%, ?, -24%, 1%, .
`O=C1CN=C(c2ccccc2)c2cc(Cl)ccc2N1Cc1ccc(Cl)cc1` in the list: -1.4%, ., ., -12%, 16%[46.1 µM], -3%[46.1 µM], ., ?

Further records follow:
SMILES	Cruzain inh Det	NS1 function inh	RE007 growth inh	Cruzain noTriton	Lassa entry inh	MARV entry inh	SARS PLpro yeast	2A StopGo
COc1cccc(NS(=O)(=O)c2cc3c4c(c2)C(C)C(=O)N4CCC3)c1 (stereo not given)	-4.1%	.	.	-5%	?	.	.	-19%
Cn1c(=O)c2nc(Cl)c(-c3ccccc3)nc2n(C)c1=O	-6.7%	-33%	-24%	1%	-5%	-13%	-4%	-13%
CCC(C)c1c(O)nc(SCC(=O)N2CCOCC2)[nH]c1=O (stereo not given)	-0.8%	-11%	5%	17%	4%	0%	-6%	2%
Cc1ccccc1-c1nc2ccccc2o1	0.8%	2%	-22%	-17%	18%	8%	0%	.
CNC(=O)COc1ccc(NC(=O)CCn2nc(-c3ccc(C)cc3)c3ccccc3c2=O)cc1	-2.9%	.	.	24%	-2%[46.1 µM]	?	.	?
CCOc1ccc(CSCCNC(=S)Nc2ccccc2)cc1	-12%	-21%	-24%	3%	12%	-23%	-39%	43%[activator]
CN(Cc1ccccc1)C(=O)c1cc(=O)[nH]c2ccccc12	.	22%	4%	.	.	.	-7%	27%
Cc1ccc(NC(=O)c2scc3c2CCCC3)cc1	-7.4%	-34%	7%	-8%	?	?	-62%	68%[activator]

Gathered by group: the entries above containing an aryl thioether with sulfur outside any ring
SMILES	Cruzain inh Det	NS1 function inh	RE007 growth inh	Cruzain noTriton	Lassa entry inh	MARV entry inh	SARS PLpro yeast	2A StopGo
Cc1nc(SCC(=O)N2CCC(C(N)=O)CC2)n[nH]1	2.0%	-8%	0%	0%	8%	3%[46.1 µM]	4%	9%
O=C(CSc1nc2ccccc2s1)Nc1ncccn1	3.2%	-9%	-4%	-2%	6%	-5%[46.1 µM]	6%	39%[activator]
CC1Cc2nc(SCC(=O)NCC3CCCO3)n(Cc3ccccc3)c(=O)c2S1 (stereo not given)	-2.5%	-4%	4%	5%	5%	14%	1%	.
CCC(C)NC(=O)CSc1ccc(S(=O)(=O)N(C)C2CCCCC2)cn1 (stereo not given)	.	.	10%	.	4µM*	?	-2%	-29%
COc1ccc(CNC(=O)CSc2nc3nc(C)cc(C)n3n2)cc1	4.2%	-6%	-30%	3%	24%	2%[46.1 µM]	-4%	-16%
CCC(C)c1c(O)nc(SCC(=O)N2CCOCC2)[nH]c1=O (stereo not given)	-0.8%	-11%	5%	17%	4%	0%	-6%	2%
